Bioassay records: PubChem BioAssay, National Center for Advancing Translational Sciences (NCATS)
VACV mCherry inh – vaccinia inhibition (mCherry reporter). Vaccinia virus mCherry reporter infection, fluorescence; about a quarter of the inactives have no number. Potency, µM (titrated, usually from 36.5 µM), for inactives: at the top dose activity change, negative = inhibition, usual class: inhibitors. 310,000 tested, 0.63% active. AID 720579; active = well fitted inhibition curve with a large enough effect; inconclusive = small, poorly fitted or top-dose-only effect; inactive = no such curve, though single readings can be large or run the other way; tested in A549 cells; further: nearly all actives have a fitted effect of over 35% in size; inactives centre near -10
Vaccinia Venus – vaccinia inhibition (Venus reporter) | Vaccinia virus Venus reporter expression, fluorescence | Potency, µM (titrated, usually from 36.5 µM), without a hit: top-dose activity change, negative = inhibition, most hits filed as inhibitors | 330,000 tested, 0.46% active | AID 720580; active means well fitted inhibition curve with a large enough effect; inconclusive means small, poorly fitted or top-dose-only effect; inactive means no such curve, though single readings can be large or run the other way; tested in A549 cells; further: nearly all actives have a fitted effect of over 30% in size; inactives centre near -10
Active calls of the source: *; i = inactive; u = inconclusive; x = not tested or not shown; & = joins results of further samples; [ ] = remark or other dose. On the % scale 0 is the no-effect control and ±100 the full control effect; potency means the concentration at half of the fitted maximal effect. No enrichment for hits. About 0.82% of those tested had a hit in this group.

Below each compound – Vaccinia Venus, VACV mCherry inh
Cc1nc(Oc2ccc(S(=O)(=O)N3CCOCC3)cc2Cl)c2c3c(sc2n1)CCCC3
    -4%, -14%
CC(=O)c1ccc(S(=O)(=O)NCCC(=O)OCC(=O)NCCc2ccccc2)cc1
    -7%, -12%
C/C=C1\NC(=O)[C@H](C)NC(=O)[C@@H](NC(=O)[C@H](Cc2ccc(O)cc2)NC(=O)[C@@H](NC(=O)/C(C)=C/C)C(C)C)[C@@H](C)OC(=O)[C@H](CCCc2ccc(O)cc2)NC(=O)[C@@H](CCC(=O)O)NC1=O
    -4%, 43%[activator]
O=C(Cn1cnc2c(cnn2-c2ccc(F)cc2)c1=O)NCc1ccco1
    u, x
C/C(CC(=O)NCC(C)C)=N\NC(=O)COc1cc(C)c(Br)cc1Br
    -11%, -23%
O=C(c1cccs1)N1CCN(S(=O)(=O)N2CCOCC2)CC1
    -14%, -19%
COc1ccc(-c2c(NC(=O)c3ccco3)n(-c3ccccc3)nc(C)c2=O)cc1
    -12%, i
Cc1sc(NC(=O)C2CCCCC2C(=O)O)c(C(N)=O)c1-c1ccc(C(C)C)cc1 (stereo not drawn)
    -4%, x
Cn1cc(SCC(=O)NCc2ccc3c(c2)OCO3)c2ccccc21
    -14%, -13%
O=c1[nH]ncc(N2CCN(C(c3ccccc3)c3ccccc3)CC2)c1Cl
    -28%, -24%
COc1ccccc1C(=O)NCc1ccc2c(c1)CCN2C(=O)c1ccncc1
    -8%, -5%
CCN(CC)c1ccc(NC(=O)CN(C)S(=O)(=O)c2cccc3nsnc23)c(C)c1
    -9%[7.34 µM], -8%[7.34 µM]
COc1ccc(CN2CCN(S(=O)(=O)c3ccc(F)cc3)CC2)cc1OC
    -17%, -9%
Cc1c(NC(=O)/C(C#N)=C/c2ccc(-c3ccccc3Cl)o2)c(=O)n(-c2ccccc2)n1C
    u, u
CCOC(=O)C1C(=O)CC(C)(O)C(C(=O)OCC)C1c1ccc(Br)o1 (stereo not drawn)
    u, x

Below each compound – Vaccinia Venus, VACV mCherry inh
COc1ccc(S(=O)(=O)NCc2c(-c3ccccc3)noc2C)c(OC)c1
    -7%, i
Cc1ccc(CN2CCCOCCS2(=O)=O)cc1
    -14%&-18%, i
CC(=O)Nc1cccc(/C(C)=N/NC(N)=S)c1
    -5%, -13%
COc1cccc(Cn2c(=O)cc(C)c3c(C)nn(-c4ccc(C)cc4)c32)c1
    -6%, -16%
COC(=O)c1ccc(CSc2ncnc3c2nnn3-c2ccc(F)cc2)o1
    -16%, x
CN1C(=O)[C@@H]2[C@@H]3C[C@@H]([C@H]4ON=C(c5ccc(Cl)cc5)[C@@H]34)[C@@H]2C1=O
    -18%, -1%
Cc1nc(-c2ccccc2)sc1-c1ccc(SCC(=O)NCc2ccccc2Cl)nn1
    -29%, u
COc1ccccc1N1CCN(c2ccc3ccccc3n2)CC1
    -23%, -29%
O=C(NCCCN1CCN(c2ccccc2F)CC1)C1CCN(S(=O)(=O)N2CCOCC2)CC1
    -10%, x
COc1ccc(CNc2nc3c(-c4cccc(F)c4)nnn3c3ccccc23)cc1
    -8%, -6%
COc1ncnc2c1ncn2CCCNCc1ccc2c(c1)OCO2
    -7%, i
COc1cc2c(cc1OC)C1=C(C#N)CCC(=NC(=O)c3ccco3)N1CC2
    -14%, -17%
Oc1ccc(N=Nc2n[nH]c(-c3ccc(Br)cc3)n2)cc1
    u, u
CC(C)Cc1nc2oc3c(=O)[nH]cnc3c2c2c1CCC2
    -10%, -6%
Cc1cccc(NC(=O)CN2C(=O)c3ccccc3S2(=O)=O)n1
    1%, i

Below each compound – Vaccinia Venus, VACV mCherry inh
CC(C)Cn1c(NCCN(C)C)nc2c1c(=O)[nH]c(=O)n2C
    -1%, -1%
Nc1nc(NC2CCCCC2)nc(NCCO)c1[N+](=O)[O-]
    -24%, -7%
CS(=O)(=O)c1ncc(CO)n1Cc1ccccc1
    -17%, -2%
CCC(C)NC(=O)Cn1ncc2c([nH]c3ccc(C)cc32)c1=O (stereo not drawn)
    -5%, -10%
O=C1C=C(c2ccccc2)C(=O)N1Nc1ccccc1
    -16%, -8%
O=C(Nc1ccccc1N1CCOCC1)C1Cc2ccccc2CN1C(=O)c1ccco1 (stereo not drawn)
    -6%, i
Cc1nc2cc([N+](=O)[O-])ccc2c(=O)n1-c1cccc(Br)c1
    -29%, u
CCOC(=O)c1nnn(-c2nonc2-n2cccc2)c1-c1cccc([N+](=O)[O-])c1
    -20%, -5%
Cc1cc(F)ccc1NC(=O)c1cccnc1
    -12%, i
Cn1nc(C(C)(C)C)cc1N1C(=O)CCC1(C)C(=O)Nc1ccc2c(c1)OCCO2 (stereo not drawn)
    1%, 5%
CCOC(=O)[C@H]1[C@H]2COc3ccc(Br)cc3[C@@H]2N2C(=O)c3cc(OC)c(OC)cc3NC(=O)[C@@]12C
    u, -7%
Cc1cc(NC(=O)CSc2nnnn2-c2ccc(C)c(Cl)c2)no1
    -11%, i
CC(C)CN(CC(C)C)S(=O)(=O)c1ccc(C(=O)Nc2sc3c(c2C(N)=O)CC(C)(C)NC3(C)C)cc1
    -14%, -5%
COc1ccccc1OCc1nc(-c2cccc([N+](=O)[O-])c2)no1
    -8%, u
COc1ccc(NC(C)C(=O)N/N=C/c2ccc([N+](=O)[O-])s2)cc1 (stereo not drawn)
    13µM*, 8.9µM*

Below each compound – Vaccinia Venus, VACV mCherry inh
Cc1ccc(Cl)c(NC(=O)Nc2csc3c2CCCC3)c1
    -9%, -6%
COc1ccc(N2CC(C(=O)N/N=C/c3c[nH]c4ccccc34)CC2=O)cc1 (stereo not drawn)
    -9%, i
Oc1nc(-c2ccc(Br)cc2)n2ccncc12
    -15%, -18%
O=C(NC1CCCc2ccccc21)c1ccc(Cl)nc1 (stereo not drawn)
    -24%, x
CCc1n[nH]c2c1/C(=N\O)CC(c1ccccc1)C2 (stereo not drawn)
    -10%, -15%
O=C(O)CCC(=O)NCC1OCCc2ccccc21 (stereo not drawn)
    -9%, -13%
CCc1nc2ccc(C(=O)Nc3cccc(NS(C)(=O)=O)c3)cn2c1N(CCC(C)C)CCN(C)C
    -15%, 14%
Cc1cc(C)n2nc(SC(C)C(=O)N(C)c3ccccc3)nc2n1 (stereo not drawn)
    -11%, i
CCCNC(=O)C(Cc1ccc(Cl)cc1)NC(=O)c1ccc(-c2ccccc2)cc1 (stereo not drawn)
    u, -27%
COc1ccc(Cl)cc1C(=O)Nc1ccc2oc(-c3ccc(C(C)(C)C)cc3)nc2c1
    -2%, 2%
CCc1cc2cccc(C)c2nc1SCC(=O)Nc1nonc1C
    -2%, -3%
COc1ccc2cc(C#N)c(SCC(=O)OCc3ccccc3)nc2c1
    -10%, -25%
CCC(C)c1ccc(OCC(=O)Nc2ccc(-c3nc4ncccc4o3)cc2)cc1 (stereo not drawn)
    -11%, -11%
COc1ccccc1N1CCN(C(=O)c2cnn(-c3ccc(C)c(C)c3)c2C2CCN(C(=O)OC(C)(C)C)CC2)CC1
    -19%, -24%
CCCOC(=O)N[C@@H]1C(=O)N2C(C(=O)OCCC)=C(C)CS[C@H]12
    -16%&-17%, -3%

Below each compound – Vaccinia Venus, VACV mCherry inh
CO/N=C/C(C(C)=O)C(=O)Nc1ccc(Cl)cc1Cl (stereo not drawn)
    -12%, i
COc1ccc(OC)c(CNc2sc3c(c2C(=O)Nc2cc(OC)ccc2OC)CCCC3)c1
    -11%, -16%
CC(C)c1ccc(NC(=O)CSc2n[nH]c(=O)n2-c2cccnc2)cc1
    -3%, -11%
Cc1cccc(C)c1NC(=O)CN1C(=O)COc2ccccc21
    0%, -11%
COc1ccccc1/C=N/Nc1nccnc1Cl
    -18%, -8%
Cc1cn([C@H]2C[C@H](O)[C@@H](CNCc3ccc4ncccc4c3)O2)c(=O)[nH]c1=O
    -5%, -8%
Fc1ccc(N2CCN(Cc3cnc(Oc4ccc(Br)cc4)s3)CC2)cc1
    -16%, -18%
Cc1ccc(N(Cc2cc3ccc(C)cc3[nH]c2=O)S(=O)(=O)c2ccccc2)cc1
    -11%, i
Cc1ccccc1CNC(=O)CCS(=O)(=O)c1cc2c3c(c1)CCN3C(=O)CC2
    1%, -8%
COc1ccccc1CNC(=O)C(=O)c1cn(CC(=O)N2CCCC2)c2ccccc12
    -14%, -6%
Cc1cc(C)c(S(=O)(=O)N(C)CC(N)=O)c(C)c1
    -8%, -15%
CS(=O)(=O)N(CC(=O)O)c1cccc(Cl)c1
    u, -9%
CCC1(c2ccc(F)cc2)NC(=O)N(CC(=O)Nc2cc(S(=O)(=O)N(C)C)ccc2Cl)C1=O (stereo not drawn)
    -26%, -13%
O=C(COc1ccccc1F)Nc1ccc2oc(-c3cccc(Cl)c3)nc2c1
    -28%, -22%
O=C(Nc1ccc([N+](=O)[O-])cc1)Nc1ccc(Cl)cc1F
    -4%, -9%

Below each compound – Vaccinia Venus, VACV mCherry inh
COCCCN1C(=O)C(CC(=O)NCc2cccs2)CC(C(=O)N(C)C)=C1C (stereo not drawn)
    -19%, i
Fc1ccc(C2=Nn3c(nnc3-c3n[nH]c4c3CCC4)SC2)cc1
    -16%, x
Nc1nonc1-n1nnc(C(=O)N/N=C/c2ccc(Br)cc2)c1-c1ccc2c(c1)OCO2
    -15%, -12%
CCCCc1c(C)nn(-c2nnc3c4ccccc4n(CC)c3n2)c1C
    -8%, -15%
CC(C)Nc1ncnc2c1ncn2[C@H]1CN(Cc2ccc3c(c2)OCO3)C[C@@H](CO)O1
    -6%, -2%
CC(C)(C)c1ccc(S(=O)(=O)N2CCNC(=O)C2)cc1
    1%, -3%
CC(=O)c1ccc(S(=O)(=O)N2CCN(C(C)=O)CC2)cc1
    -9%, i
O=[N+]([O-])c1cccc(-c2ncc3ccccn23)c1
    3%, 3%
CC(=O)c1cc(C#N)c(Oc2ccc(F)cc2)nc1C
    -21%, x
Cc1ccc(S(=O)(=O)c2c(C)nn(-c3ccccc3)c2OC(=O)c2ccc(Br)o2)cc1
    -18%, i
C=CCSc1nc2sc3c(c2c(=O)n1-c1ccccc1)CCN(C)C3
    -16%, u
COc1ccccc1N1CCN(S(=O)(=O)CCNC(=O)c2ccco2)CC1
    -8%, i
CCCCCN(C(=O)CCC(=O)OCC(=O)N(C)c1ccccc1)c1c(N)n(CCCC)c(=O)[nH]c1=O
    -7%, -15%
Cc1ccc(Nc2cc(-n3cccn3)ncn2)c(C)c1
    -19%, u
CCCCNC(=O)NCc1cnn(C)c1C
    2%, -10%

Below each compound – Vaccinia Venus, VACV mCherry inh
CC(C)(C)OC(=O)N1CCC(c2c(C(=O)N3CCN(c4ncccn4)CC3)cnn2-c2cccc(F)c2)CC1
    -5%, -4%
CCCCC1CC(/C(C)=N/NC(N)=O)OC1=O (stereo not drawn)
    -13%, -12%
CC1(C)CC2C1CCC1(C)OC2(C)CCC1O (stereo not drawn)
    -1%, -6%
COc1ccc(O)c(C(=O)/C=C/c2cc3ccccc3o2)c1
    -11%, i
CC(C)C(NS(=O)(=O)c1ccc2c3c(cccc13)C(=O)N2)C(=O)O (stereo not drawn)
    -6%, 7%
CCCCc1cc(=O)oc2cc(C)cc(OCC(=O)NCc3cccnc3)c12
    0%, -8%
CCOC(=O)C(Cc1ccnc2ccccc12)=NO
    -7%, -14%
OC1CSc2nc3ccccc3n2C1 (stereo not drawn)
    0%, 11%
CC(=O)Nc1cccc(C(=O)/C=C/c2ccc(N(C)C)cc2)c1
    31%[activator], u
COc1ccc(C(=O)OC(COc2ccccc2)Cn2ccnc2)cc1 (stereo not drawn)
    -9%, -13%
Cc1cnc(-n2ncc(C(=O)N(CCO)C(C)C)c2-c2cccs2)nc1-c1ccc(F)cc1
    -16%, -18%
CCOC(=O)C1C(=O)NCC1c1ccccc1 (stereo not drawn)
    -6%, i
CC(=O)Nc1cc(C(=O)NCc2ccco2)ccc1Sc1ccc(F)cc1
    -13%, -19%
CC1CCC2(CC1)NC(=O)N(CC(=O)Nc1ccc3c(c1)CCC3)C2=O (stereo not drawn)
    -22%, -10%
Cc1ccc(NC(=O)C2CCCN(C(=O)NCc3ccccc3)C2)c(C)c1 (stereo not drawn)
    -10%, -8%

Below each compound – Vaccinia Venus, VACV mCherry inh
Cc1cc(=O)c2cccc(Br)c2[nH]1
    -2%, -10%
CC(=O)c1ccc(OC2(C)CCN(Cc3csc4ccccc34)C2)cc1 (stereo not drawn)
    -9%, 25%
CC(=O)Oc1cc2c(cc1OC(C)=O)C(=O)CCCC2
    -8%, -4%
Cc1csc(N=Nc2ccc(N(C)C)cc2)[n+]1[O-]
    -14%, i
COc1ccc(CN2CCNCC2)c(OC)c1OC
    -15%&-9%, -19%&-1%
COc1ccc(NC(=S)N2CCN(c3ccccn3)CC2)cc1OC
    -5%, i

Profiles as entered above. Order of screens: Vaccinia Venus | VACV mCherry inh
Entry for COc1ccc(CN2CCNCC2)c(OC)c1OC : -15%&-9% | -19%&-1%
Entry for Cc1cc(=O)c2cccc(Br)c2[nH]1 : -2% | -10%
Entry for COc1ccc(NC(=S)N2CCN(c3ccccn3)CC2)cc1OC : -5% | i
Entry for Cc1csc(N=Nc2ccc(N(C)C)cc2)[n+]1[O-] : -14% | i
